Ecoli growth: E. coli growth inhibition, primary screen, OD600. Escherichia coli growth, 23 h; hits give low values. AID 1053175, 2014. hit rate 0.21% among 330,000. OD600 absorbance (test concentration not listed);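 active = OD600 absorbance below the run mean of sample wells minus 3.6 SD, in any replicate, cut at about 0.56 in these data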;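 note: stock transfer was 300 nL into about 60 µL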
FGF22 binding: binders of human FGF22 protein, primary screen, FGF22 synaptogenesis inhibitor project, biophysical, thermal shift, single point | hit rate 1.5% among 340,000 | calls only at 9.99 µM | Fibroblast growth factor 22 (Homo sapiens), Q9HCT0 | recombinant FGF22 thermal shift, SYPRO orange fluorescence; percent of sucrose octasulfate shift, DMSO zero;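 active = melting point raised past a set limit in the mean and every replicate; inconclusive = no clear call; three in four hits are not shown here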
Target sequence (Q9HCT0 whole entry, looked up): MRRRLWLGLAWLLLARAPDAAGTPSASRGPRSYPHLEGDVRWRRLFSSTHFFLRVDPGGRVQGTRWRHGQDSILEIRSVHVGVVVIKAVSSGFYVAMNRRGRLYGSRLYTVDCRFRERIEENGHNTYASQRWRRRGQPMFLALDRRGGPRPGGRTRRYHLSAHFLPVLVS
MLL AF4-AF9 inh: inhibitors of AF4 peptide binding to AF9, primary screen, biochemical, AlphaScreen, biotin-AF4 peptide, FLAG-AF9, single point; inhibition, % at 10 µM; Protein AF-9 (Homo sapiens), P42568; hit rate 0.47% among 350,000;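 active = every replicate reaching a set inhibition limit, whatever the replicate mean, cut at about 25% in these data; inconclusive = mean inhibition reaches that limit but some replicates miss it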;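 note: 0% = plate neutral control median and 100% = total signal loss; the record names both 10 and 1 µM as test concentration; the first replicate is given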
RanGTP-Imp inh: inhibitors of RanGTP-importin-beta interaction, primary screen, biochemical, FRET, CFP-Ran, YFP-importin-beta, homogeneous | Ran GTPase (GTP-bound) - importin-beta complex | cell-free CFP-Ran/YFP-importin-beta FRET ratio | inhibition, % (test concentration not listed) | hit rate 1.1% among 300,000 | AID 2216, 2009;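 active = most replicates above 15%; inconclusive = exactly half above 15%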;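 note: 0% = DMSO wells and 100% = Ran loaded with GDP instead of GTP; wells of about 40 µL received 100 nL stock; the first replicate is given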
HNF4A DNA FP: change in binding of human HNF4A to DNA, primary screen, biochemical, fluorescence polarization, FITC-DNA. 1 h. activity change, % at 10 µM. hit rate 0.3% among 360,000. AID 1224865, 2016; in the data active = activity change above about 30%, passing the limit was not always enough;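 note: controls were the assay level and a saturating level of protein; the project sought stronger binding though the title names inhibitors; some compounds called inactive have numbers as strong as hits; positive values seem to mean higher polarization but the record does not say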
Target sequence (P41235 whole entry, looked up): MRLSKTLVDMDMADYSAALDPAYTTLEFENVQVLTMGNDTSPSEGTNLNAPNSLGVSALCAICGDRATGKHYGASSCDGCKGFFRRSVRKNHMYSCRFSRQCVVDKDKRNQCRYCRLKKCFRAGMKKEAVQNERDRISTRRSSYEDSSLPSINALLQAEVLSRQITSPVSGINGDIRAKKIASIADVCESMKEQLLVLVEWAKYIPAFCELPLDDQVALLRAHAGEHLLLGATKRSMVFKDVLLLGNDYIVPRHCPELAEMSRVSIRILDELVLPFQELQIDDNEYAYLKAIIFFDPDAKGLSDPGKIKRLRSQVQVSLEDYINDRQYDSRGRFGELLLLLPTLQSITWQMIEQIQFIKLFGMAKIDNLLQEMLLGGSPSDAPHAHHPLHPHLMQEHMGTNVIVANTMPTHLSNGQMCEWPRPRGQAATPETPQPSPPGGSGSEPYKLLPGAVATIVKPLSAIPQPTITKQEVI
Vif TR-FRET: inhibitors of Vif binding to APOBEC3G peptide, primary screen, biochemical, TR-FRET, GST-Vif 1-94, biotin-A3G peptide, dose response retest (AID 1117319); Virion infectivity factor (Human immunodeficiency virus type 1 group M subtype B (isolate …; TR-FRET GST-Vif / biotin-A3G peptide binding; higher % means a stronger effect; test concentration not given here; strong numbers were not always called active; inhibition, %, or IC50 in µM where a hit was titrated; hit rate 0.57% among 260,000;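 active = above the screen mean plus three standard deviations and confirmed in dose response; inconclusive = results disagree or hit not tested in dose response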;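 note: Vif residues 1-94 fused to GST binding biotinylated APOBEC3G peptide 110-148; 0% = full assay without inhibitor and 100% = GST in place of GST-Vif; retest series ran down from 100 µM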
UCH37 inh: inhibitors of human UCH37 deubiquitinase, primary screen, biochemical, Ub-AMC cleavage, fluorescence | inhibition, % (no concentration beside the values) | purified proteasome/UCH37 | hit rate 0.33% among 330,000 | Ubiquitin carboxyl-terminal hydrolase isozyme L5 (Homo sapiens), Q9Y5K5;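 active = mean of two replicates above 20%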;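 note: 0% = compound-free wells with enzyme and 100% = wells lacking proteasome; stock transfer was 100 nL into about 20 µL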
Target sequence (Q9Y5K5 whole entry, looked up): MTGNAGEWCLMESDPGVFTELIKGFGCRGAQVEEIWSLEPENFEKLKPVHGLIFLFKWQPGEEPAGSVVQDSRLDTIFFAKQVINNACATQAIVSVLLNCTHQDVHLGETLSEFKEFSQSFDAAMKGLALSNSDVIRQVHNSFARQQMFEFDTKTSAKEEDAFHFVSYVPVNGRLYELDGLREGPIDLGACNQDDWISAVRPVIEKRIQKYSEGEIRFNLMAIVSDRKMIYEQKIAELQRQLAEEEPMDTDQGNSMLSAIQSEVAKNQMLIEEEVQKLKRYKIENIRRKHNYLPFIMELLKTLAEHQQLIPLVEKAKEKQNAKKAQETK
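system = Proteasome-associated human UCH37 deubiquitinase | amount = 0.15 nM proteasome as dispensed | medium = pH 7.4 Tris-HCl (50 mM) with ovalbumin, ATP-MgCl2, DTT | incubation = 30 min preincubation with enzyme, 25 min cleavage at room temperature | detection = AMC fluorescence 355/460 nm | read-out basis = percent inhibition | controls = no-proteasome and no-compound wells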
* marks the source's active call; other numbers are inactive results; i = inactive; ? = inconclusive; / = not tested or not shown.

SMILES	Ecoli growth	FGF22 binding	MLL AF4-AF9 inh	RanGTP-Imp inh	HNF4A DNA FP	Vif TR-FRET	UCH37 inh
COc1ccc(NC(=O)CS(=O)CC(=O)N2CCN(C3CCCC3)CC2)cc1 (stereo unspecified)	0.65	i	-4.7	-2.5	1.5	/	0.7
CCCCOc1nc(N)nc(-c2ccccc2)n1	0.71	/	/	0.2	-7.8	6%	5.4
OCC[C@@H]1C[C@H](O)[C@@H](O)[C@]2(Cc3ccccc3CCO2)O1	/	i	-2.2	2.9	5.9	/	3.1
O=C(COC(=O)C1CC2CCCC(C1)C2=O)Nc1cccc(F)c1 (stereo unspecified)	0.67	i	2.0	/	-1.1	-2%	0.9
O=C(OCC(=O)N1CCCC1)c1c2c(nc3ccccc13)CCCCC2	0.69	i	1.3	5.6	1.3	-4%	3.7
CCn1c(=S)sc2c(=O)n(CC(=O)Nc3ccc(C(C)=O)cc3)c(C)nc21	0.68	i	0.5	-2.8	6.1	/	4.6
COC(=O)CCN(C(=O)C1C2CC3CC(C2)CC1C3)c1ccccn1 (stereo unspecified)	0.71	/	/	-4.0	2.2	30%	-1.5
CCCCC(CC)C1OCC(C[N+]2(C)CCOCC2)O1 (stereo unspecified)	0.64	i	-3.2	-0.9	3.0	-5%	0.7
COc1ccc(C(=O)COC(=O)COc2cc(C)cc(C)c2)cc1	0.69	i	-2.4	-0.6	0.4	/	1.4
COC(=O)C1CCN(C(=O)C2CCCCC2)CC1	0.7	/	/	4.2	-0.6	3%	-0.5
O=C(c1cc(COc2cccc(C(F)(F)F)c2)on1)N1CCC(c2ccncc2)CC1	0.66	i	0.4	-1.2	0.6	/	0.6
O=Cc1ccc(C(=O)OCC(=O)N2CCCC2)cc1	0.64	i	0.4	0.4	1.1	-2%	2.1
Cc1c(N2C(=O)C3C4C=CC(C5CC45)C3C2=O)c(=O)n(-c2ccccc2)n1C (stereo unspecified)	0.67	i	-1.3	-1.7	2.5	0%	1.7
CC(C)c1ccc(N(C(=O)c2ccco2)C(C(=O)NC2CCCC2)c2cccnc2)cc1 (stereo unspecified)	0.71	i	3.5	7.1	1.6	/	-0.4
NC(=O)c1nsc(C(=O)N(CCc2ccccc2)C(C(=O)NC2CCCC2)c2ccco2)c1N (stereo unspecified)	0.71	i	-1.9	89*	-3.4	-5%	-24
O=C(Nc1cc(Cl)ccc1N1CCOCC1)c1ccncc1	0.69	i	6.2	/	-1.1	/	3.2
O=C(CC12CC3CC(CC(C3)C1)C2)NCC(=O)N1CCCC1	0.79	/	/	-2.2	-3.1	-1%	3.9
COC(=O)c1ccc(Sc2ccc(C)cc2)c(N)c1	0.66	i	0.9	-1.6	1.7	5%	-74
Cc1ccc2nc(-c3cccc(Br)c3)cc(C(=O)NC3=NCCS3)c2c1	0.74	i	9.5	-0.2	-3.3	?	0.2
Cn1c(CNC(=O)CNS(=O)(=O)c2ccc(Cl)cc2)cc(=O)n(C)c1=O	0.68	i	0.2	0.6	0.1	/	4.9
O=C(Nc1nnc(SCCN2CCOCC2)s1)C1CC(=O)N(c2ccccc2)C1 (stereo unspecified)	0.73	i	-0.6	-1.3	-1.8	3%	1.3
Cc1ccnc(NS(=O)(=O)c2ccc(NC(=O)/C=C/c3ccccc3)cc2)n1	0.68	i	-5.8	4.6	-5.5	2%	3.8
CC(=O)N(C(C)=O)n1c(/C=C/c2ccc([N+](=O)[O-])cc2)nc2ccccc2c1=O	0.69	i	-1.0	-29	-1.1	4%	-27
O=C(c1noc2c1CCCC2)N1CCN(c2ccc(F)cc2)CC1	0.68	i	-68	0.6	-0.1	-1%	0.9
Cc1nn(C(C)(C)C)c(N)c1-c1ccccc1	0.64	/	/	?	-2.2	3%	2.3

(cont.)
SMILES	Ecoli growth	FGF22 binding	MLL AF4-AF9 inh	RanGTP-Imp inh	HNF4A DNA FP	Vif TR-FRET	UCH37 inh
Nc1ccc(N2CCCCC2)c(Cl)c1	0.68	/	-2.0	-3.0	2.5	20%	0.1
COc1ccccc1C1(O)CCN(CC(=O)Nc2nc(-c3ccccc3)cs2)CC1	0.68	i	3.2	0.4	-3.4	/	-1.5
Cc1cc2ccccn2c1C(=O)c1ccc(C#N)cc1	0.7	i	19	-1.6	-4.5	-6%	0.9
O=C(NC1CCCCC1)C1CCN(C(=O)c2ccc(Cl)cc2)CC1	0.68	i	-7.4	-1.0	0.9	/	0.5
Cc1ccc2nc(N(CCCN(C)C)C(=O)c3ccc4c(c3)CCCC4)sc2c1	0.62	/	/	2.5	-0.5	/	1.1
O=C(NCc1ccccc1)C(=O)NCC1OCCN1C(=O)c1ccc(Cl)cc1 (stereo unspecified)	0.72	i	-4.0	-4.1	-2.6	?	5.3
Cn1c(SCC(=O)c2ccc(F)cc2)nnc1-c1cccnc1	0.66	i	0.4	-0.9	-5.4	6%	0.5
Cc1cccc(NC(=O)CN2C(=O)NC(C)(c3ccc4ccccc4c3)C2=O)n1 (stereo unspecified)	0.67	i	-1.7	3.1	-1.2	5%	3.9
COc1ccc(C(C)=O)cc1COc1cccnc1[N+](=O)[O-]	0.65	i	1.9	-1.8	0.4	/	2.6
CC(=O)Nc1cccc(C(=O)OCc2ccc(C(=O)Oc3ccc(Cl)cc3)cc2)c1	0.73	/	/	0.3	-1.5	?	-0.9
COc1ccc(CCNC(=O)CSc2nc(N)cc(=O)[nH]2)cc1OC	0.67	i	5.2	-4.0	-0.9	5%	1.3
CCn1c(CNC(=O)c2ccccc2F)nnc1SCC(=O)NC1CCCCC1	0.66	i	-2.0	-0.8	3.4	/	-0.3
COc1ccc(NC(=S)NNC(=O)OC(C)(C)C)cc1OC	0.73	/	/	?	-4.2	0%	5.4
CCOc1ccc(N(CC(=O)NCCOc2ccccc2OC)S(=O)(=O)c2ccccc2)cc1	0.69	i	-1.0	4.3	1.8	3%	2.2
CC1(c2nnnn2Cc2ccccc2)CCC(=O)N1CC1CCCCC1 (stereo unspecified)	/	i	-1.0	/	0.3	/	/
CC(C)(C)n1nnnc1C(c1cccc(C#N)c1)N1CCC(Cc2ccccc2)CC1 (stereo unspecified)	0.71	i	-31	4.3	-3.8	-2%	0.7
CC1(CC(=O)N/N=C/c2ccc(-c3cccc(C(F)(F)F)c3)o2)OCCO1	/	i	-2.2	1.4	-0.5	/	/
CCCCCC(=O)N1CCN(S(=O)(=O)c2ccc3c(c2)OCCO3)CC1	0.68	i	-7.1	1.7	-6.9	1%	0.9
CCOc1ccc(C(=O)NCC(=O)OCc2c(F)cccc2Cl)cc1	0.6	/	/	-0.6	1.4	-5%	0.9
COCCN1C=C(C(=O)OC)C(c2ccccc2Cl)C(C(=O)OC)=C1	0.72	i	1.3	58*	0.7	1%	i
CCOc1cc(C2C(C#N)=C(N)Oc3n[nH]c(C)c32)ccc1OCCN1CCOCC1 (stereo unspecified)	0.72	/	/	2.0	-2.7	?	1.3
CC(Sc1nnc(-c2ccc(Cl)cc2)n1N)C(=O)NCC1CCCO1 (stereo unspecified)	0.67	i	4.3	-2.7	2.2	3%	-1.1
COc1ccc(CCNC(=O)COC(=O)/C=C/c2ccc(OC)cc2OC)cc1	0.68	i	-0.9	/	-1.6	4%	-2.4
Cc1cc(NC(=O)CSc2nnc(-c3c[nH]c4ccccc34)n2-c2ccc(Cl)cc2)no1	0.7	i	-1.6	2.6	2.6	8%	-0.7
CCN(CC)c1ncnc2sc(C(=O)N3CCN(c4ccccc4)CC3)c(C)c12	0.73	/	/	2.5	-1.0	-1%	4.1

Going on with the list:
SMILES	Ecoli growth	FGF22 binding	MLL AF4-AF9 inh	RanGTP-Imp inh	HNF4A DNA FP	Vif TR-FRET	UCH37 inh
CCC(=O)Nc1ccc(C(=O)c2ccccc2)cc1	0.67	/	/	2.7	-1.5	?	0.8
CC(C)CCC(=O)N1CCOC1=O	0.7	i	-0.1	3.4	1.3	/	2.3
CCC(C(=O)Nc1ccc([N+](=O)[O-])cn1)c1ccccc1 (stereo unspecified)	0.63	i	6.2	-2.7	4.9	/	4.2
CC(C)(CO)NCC#Cc1ccccc1	0.67	i	-0.4	3.3	0.6	?	2.3
Cc1cc(C)nc(NN=C2CCCC2)n1	0.7	/	/	-1.5	0.2	12%	2.0
CCc1ccc(N=Nc2ccc(O)c3[nH]cnc23)cc1	/	i	2.9	/	42*	/	/
COc1cc2c(cc1OC)C(C(=O)NCc1ccco1)C1c3ccccc3CCN1C2=O (stereo unspecified)	0.69	/	/	-2.8	-1.7	1%	-2.0
Cn1cccc1CC(=O)N/N=C/C(Cl)=C/c1ccccc1	/	i	3.3	0.0	3.2	19%	/
CCC(SCC(=O)OC)C(=O)Nc1nnc(C(C)C)s1 (stereo unspecified)	0.76	i	-1.4	-3.3	-0.1	?	1.6
CCN(CC)c1ccc(NC(=O)C2CC(=O)N(Cc3ccccc3)C2)cc1 (stereo unspecified)	0.69	i	11	3.3	2.8	5%	4.3
CCC(=O)/C(=C(/O)c1ccccc1)c1nc2ccccc2[nH]1	0.69	i	0.4	0.4	-4.6	8%	-7.0
COc1cc(/C=C(/NC(=O)c2ccccc2)C(=O)N2CCOCC2)c([N+](=O)[O-])cc1OC	0.7	i	-1.6	-2.4	3.0	/	4.4
O=C1NC2(CCc3ccccc3C2)C(=O)N1CCOc1cccc(Cl)c1 (stereo unspecified)	0.66	/	/	7.6	-2.1	/	5.2
CCC(CC)C(=O)OCC(=O)C1(O)CCC2C3CCC4=CC(=O)CCC4(C)C3C(O)CC21C (stereo unspecified)	0.69	i	1.9	/	-1.9	-6%	0.3
Cc1ccc(CCN2CC(C(=O)O)CC2=O)cc1 (stereo unspecified)	0.69	/	/	-0.7	0.4	1%	1.1
COCc1cc(=O)[nH]c(/N=C(\N)Nc2cccc(C)c2)n1	/	/	/	0.9	0.8	?	/
COc1ccccc1-n1cnnc1SC(C)C(=O)Nc1ccc(NC(C)=O)cc1 (stereo unspecified)	0.6	/	-1.0	1.3	-0.7	-3%	0.3
O=C(/C=C/c1ccccc1)Nc1cccnc1Oc1ccccc1F	0.68	i	1.6	-4.6	-1.7	/	3.3
CCN(CC(=O)NCc1ccc(Cl)cc1)C(=O)CSCC(=O)Nc1cccc(C)c1	0.69	i	0.0	-2.1	4.6	4%	2.7
CN1CCN(CCOC2Cc3ccccc3Sc3ccc(Cl)cc32)CC1 (stereo unspecified)	0.63	/	/	1.0	1.4	-9%	2.8

Full records as entered above:
Entry for COCc1cc(=O)[nH]c(/N=C(\N)Nc2cccc(C)c2)n1 : Ecoli growth = /; FGF22 binding = /; MLL AF4-AF9 inh = /; RanGTP-Imp inh = 0.9; HNF4A DNA FP = 0.8; Vif TR-FRET = ?; UCH37 inh = /
Entry for CCC(=O)Nc1ccc(C(=O)c2ccccc2)cc1 : Ecoli growth = 0.67; FGF22 binding = /; MLL AF4-AF9 inh = /; RanGTP-Imp inh = 2.7; HNF4A DNA FP = -1.5; Vif TR-FRET = ?; UCH37 inh = 0.8

Screening data as filed in PubChem.

A portion of the library, so the mix of outcomes need not match the whole.
